# Screening data (PubChem BioAssay)
# eIF4H FP inh: human eIF4H binding inhibitors, primary screen, translation initiation inhibitor project, biochemical, uHTS, fluorescence polarization | Eukaryotic translation initiation factor 4H (Homo sapiens), Q15056 | eIF4H fluorescence polarization binding assay | inhibition, % at 35 µM | 290,000 compounds, 0.94% hits | AID 2012, 2009;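 active = 50% or more with normal probe brightness, or confirmed in later tests; inconclusive = above 50% with abnormal brightness, or retests that disagree; inactive = below 50% or failed in later tests; about a fifth of its hits are not listed in these tables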;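 note: calls also rest on retests at 20 µM and on dose response follow-up; 0% = protein and probe with vehicle and 100% = probe without protein; strong numbers were not always called active; many hits fall short of the cut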
# UUG fidelity: modulators of yeast start codon fidelity, primary screen, whole organism, S. cerevisiae, single point, plate reader. S. cerevisiae UUG-firefly luciferase reporter, luminescence/redox ratio. activity score, % at 18.7 µM. 350,000 compounds, 0.13% hits. AID 602363, 2012;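 active = replicate mean at a twofold rise or more, about +100% in these data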;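 note: firefly luciferase made from a UUG start codon reports start codon fidelity; reporter light over untreated wells divided by growth signal over untreated wells; some hits fall short of that in this replicate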
# PABP FP inh: PABP poly(A) RNA binding inhibitors, primary screen, biochemical, fluorescence polarization, uHTS | Polyadenylate-binding protein 1 (Homo sapiens), P11940 | inhibition, % at 35 µM | 290,000 compounds, 1% hits | AID 2014, 2009;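 active = 50% or more with normal probe brightness, or confirmed in later tests; inconclusive = above 50% with abnormal brightness, or retests that disagree; inactive = below 50% or failed in later tests; about a fifth of its hits are not listed in these tables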;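 note: calls also rest on retests at 20 µM and on dose response follow-up; controls were probe without protein and protein plus probe with vehicle; some compounds called inactive have numbers as strong as hits; many hits fall short of the cut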
# Target sequence (P11940 whole entry, looked up): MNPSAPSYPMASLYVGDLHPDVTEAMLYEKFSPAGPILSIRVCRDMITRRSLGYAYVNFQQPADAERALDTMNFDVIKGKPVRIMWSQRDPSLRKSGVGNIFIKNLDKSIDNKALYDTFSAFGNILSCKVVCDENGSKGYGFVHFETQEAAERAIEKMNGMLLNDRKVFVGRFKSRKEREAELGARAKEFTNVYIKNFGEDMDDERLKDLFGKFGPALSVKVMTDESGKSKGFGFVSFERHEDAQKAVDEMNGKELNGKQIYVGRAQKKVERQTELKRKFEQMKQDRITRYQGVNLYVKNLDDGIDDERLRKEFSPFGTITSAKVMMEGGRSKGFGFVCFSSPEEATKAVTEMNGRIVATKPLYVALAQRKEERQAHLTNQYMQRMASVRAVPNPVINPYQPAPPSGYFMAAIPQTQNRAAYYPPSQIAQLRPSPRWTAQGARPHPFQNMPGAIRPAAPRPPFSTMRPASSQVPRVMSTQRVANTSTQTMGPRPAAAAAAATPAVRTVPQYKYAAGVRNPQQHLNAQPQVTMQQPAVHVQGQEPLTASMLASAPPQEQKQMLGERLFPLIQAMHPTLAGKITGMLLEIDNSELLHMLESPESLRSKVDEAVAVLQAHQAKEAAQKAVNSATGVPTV
# MT1-MMP act inh: blockers of MT1-MMP proenzyme processing, primary screen, HT1080 RFP-PRO-GFP cells, GFP/RFP fluorescence. Matrix metalloproteinase-14 (Homo sapiens), P50281. GFP/RFP ratio fluorescence, overnight; percent of plate control window, DMSO zero. GFP/RFP ratio change, % at 20 µM. 360,000 compounds, 0.061% hits. AID 651647, 2012;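 active = GFP/RFP ratio change of at least 30% with cell ATP level not reduced by more than half and red fluorescence within 50% of control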; note: strong numbers were not always called active
#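 Assay system: HT1080 RFP-PRO-GFP cells | Dosing: 20 µM single dose, 1% DMSO | Incubation: Cells overnight before dosing, compound overnight, 37 °C, 5% CO2 | Evaluation: GFP/RFP fluorescence ratio | Control set: DMSO-only wells and HT1080 RFP-L50D-GFP cell wells as references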
# Rce1 inhib: yeast Rce1p protease inhibitors, primary screen, biochemical, fluorescence, cell-free homogeneous. CAAX prenyl protease 2 (Saccharomyces cerevisiae (strain ATCC 204508 / S288c)), Q03530. yeast membranes, quenched prenylated peptide cleavage fluorescence. calls only. 290,000 compounds, 0.27% hits. AID 2563, 2010;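 active = fall in fluorescence gain of 50% or more versus controls, with final raw signal at or below 3038400; inconclusive = same 50% fall but final raw signal above 3038400; inactive = fall in fluorescence gain under 50%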;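 note: plate controls were neutral control wells for no effect and wells lacking membranes for full effect; tested at 10 µM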
# Target sequence (Q03530 whole entry, looked up): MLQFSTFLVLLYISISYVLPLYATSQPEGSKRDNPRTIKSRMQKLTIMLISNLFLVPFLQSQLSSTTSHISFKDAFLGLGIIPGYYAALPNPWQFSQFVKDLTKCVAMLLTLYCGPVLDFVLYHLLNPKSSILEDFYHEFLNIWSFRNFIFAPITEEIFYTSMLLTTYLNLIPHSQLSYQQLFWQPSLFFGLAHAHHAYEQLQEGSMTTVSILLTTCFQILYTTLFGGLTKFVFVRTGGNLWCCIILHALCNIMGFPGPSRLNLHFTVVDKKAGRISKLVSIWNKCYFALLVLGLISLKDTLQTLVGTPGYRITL
# HIV Env fusion: inhibitors of HIV-1 Env-driven cell-cell fusion, primary screen, HeLa-JRFL effector, CEM21 target cells, luciferase; inhibition, % at 12.3 µM; 360,000 compounds, 1.1% hits;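 active = mean replicate inhibition score of at least 50 and every replicate individually at or above 50; inconclusive = only one of the two criteria met; inactive = mean below 50 and not all replicates reaching 50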;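 note: 0% = plate neutral controls and 100% = maraviroc near 300 nM; one replicate is shown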
# CSC inhib: cancer stem cell viability inhibitors, primary screen, luminescence; cancer stem cell-like cells viability; inhibition, % at 7.5 µM; 300,000 compounds, 1.1% hits; AID 2717, 2010;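 active = mean at 75% or more and at least half the replicates too; inconclusive = mean and replicates disagree; tested in HMLE shEcad cells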;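 note: 0% = median of negative and 100% = median of positive control wells; the first replicate is given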
# MT1-MMP act inh RFP: recorded beside MT1-MMP act inh, whose call it bears; RFP signal change, %; measured here: RFP expression control read;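 0 = vehicle wells; hits needed this value within 50% of zero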
# The depositor's hits bear a star; i = inactive; ? = inconclusive; / = no result given.
# Screens in order: eIF4H FP inh	UUG fidelity	PABP FP inh	MT1-MMP act inh	MT1-MMP act inh RFP	Rce1 inhib	HIV Env fusion	CSC inhib
C[C@H](NC(=O)C1CCN(S(=O)(=O)c2ccccc2)CC1)C(=O)NC1CC1
    /	-5.5	/	-2.4	1.8	/	7.4	/
Nc1cc2nc[nH]c2cc1N
    ?	/	2.3	4.9	4.1	i	-5.4	/
CCCCn1[nH]c(-c2ccccc2)cc1=O
    3.5	/	9.3	0.9	-0.1	i	5.9	-7.0
COc1cccc(OCc2cc(C(=O)N(C)C3CCOCC3)no2)c1
    -6.6	-1.3	-2.8	-0.1	1.9	i	-3.3	-2.3
CCCCCCNC(=O)c1c(O)c2cccc3c2n(c1=O)CCC3
    -11.5	-14.6	-0.4	-1.1	2.5	i	/	20.5
CC(C)C[C@H]1CN=C(Nc2ccccc2)N1CCCC1CCCCC1
    5.2	-15.9	5.7	3.5	-1.2	i	2.8	27.5
O=C(C1COc2ccccc2O1)N1CCN(c2ccccc2O)CC1 (stereo unspecified)
    /	6.2	/	-1.8	4.8	/	/	-11.7
COC(=O)CN1C(=O)COc2ccc(S(=O)(=O)N3CCCC3)cc21
    -1.1	-14.1	8.8	1.1	0.7	i	-3.8	2.3
O=C(NCCN1CCCC1=O)C1CCC(=O)N(CCc2ccc(Cl)cc2)C1 (stereo unspecified)
    -1.9	-15.4	-1.1	1.5	3.8	i	/	13.1
COc1cc(C(F)(F)F)c(C(=O)N(C)Cc2cc(Cl)cc(Cl)c2)cn1
    6.4	3.7	3.7	-0.9	-4.0	i	-33.6	-4.6
COc1cccc(-c2csc(NNC(=O)c3cccs3)n2)c1
    -10.7	-15.7	-7.7	9.1	-2.3	i	-8.5	-0.1
c1ccc2cc(CCCc3cc4ccccc4cn3)ncc2c1
    /	-10.1	/	1.3	6.0	/	6.2	1.8
NC(=O)CSc1nc2sc(-c3ccccc3)cc2c(=O)n1N
    -4.9	-5.6	-8.6	3.9	-1.3	i	/	23.2
CCC(=O)Nc1ccc2c(c1)ncn2-c1ccccc1
    -10.4	-1.4	-0.5	0.3	0.8	i	-47.5	8.0
CCOc1ccc(-c2nnc(-c3ccncc3)o2)cc1OCC
    -6.1	/	-3.8	-1.6	-1.1	i	5.8	-14.7
CC(C)N1CCC1(C)C(=O)Nc1ccc2scnc2c1 (stereo unspecified)
    /	-20.4	/	-2.3	3.0	/	33.3	/
CCN(CC)c1ccc(NC(=O)CSc2nc3nc(C)cc(C)c3c(=O)[nH]2)cc1
    /	-14.2	/	2.6	-0.7	i	-15.2	5.9
CCN(CC)C(=O)CCC(=O)Nc1ccc(C(=O)OC)cc1
    1.9	-16.2	19.0	4.1	5.8	i	/	5.7
Cc1cc(NC(=O)CSCc2nc(-c3cccc(F)c3)oc2C)no1
    -1.7	-12.9	19.5	5.1	1.6	i	26.5	-11.4
O=C(NC(=S)Nc1cc(Cl)ccc1N1CCOCC1)c1ccc(-c2cccc(Cl)c2)o1
    -1.7	-12.4	-11.2	-2.5	-2.6	i	-26.6	1.4
CCOC(=O)c1ccc(Nc2c(CC)c(C)nc3ncnn23)cc1
    3.2	-12.5	-7.2	7.5	-1.4	i	4.5	-14.8
COC(=O)c1nc(-n2nc(C)cc2C)ccc1Cl
    -8.0	7.1	-1.1	3.4	0.2	i	-27.7	/
CCOC(=O)C1(Cc2cccc(F)c2)CCN(C(=O)Cc2cccnc2)CC1
    -14.1	/	-8.6	0.7	0.2	i	-16.4	-8.8
CCOc1ccccc1NC(=O)CN1C(=O)C(=O)N(Cc2ccco2)C1=O
    9.2	2.3	10.7	2.7	5.0	i	-10.0	-2.4
Nc1nonc1-n1nnc(C(=O)N/N=C/c2ccc(OCc3ccccc3)cc2)c1CN1CCCCC1
    -6.8	0.9	-2.0	-1.4	-7.6	i	-20.0	-2.1
CCOc1ccc2oc(C(=O)NCC(c3ccco3)N(C)C)c(C)c2c1 (stereo unspecified)
    /	-3.1	/	0.2	3.2	/	31.9	/
C1=CN2CCC1C(c1ccccc1)C2 (stereo unspecified)
    4.6	/	3.6	/	/	i	/	-14.7
COc1ccc2[nH]c3c(c2c1)CCN1C(=O)C(CC(=O)NCCN2CCOCC2)C[C@H](C(=O)N2CCOCC2)[C@@]31C (stereo partly specified)
    /	-13.7	/	2.8	1.8	/	-13.1	/
Cc1n[nH]c(=S)n(NC(=O)/C=C/C(=O)Nn2c(=S)[nH]nc(C)c2=O)c1=O
    92.4*	/	86.4*	-9.1	2.3	i	7.8	/
CC(C)C1C(=O)N(Cc2cn(Cc3ccco3)nn2)CCS(=O)(=O)N1Cc1ccc(-c2ccc(Cl)c(Cl)c2)cc1 (stereo unspecified)
    /	5.9	/	-0.2	-7.1	/	4.2	/
CC(C)(C)OC(=O)N1CCC(CNC(=O)c2ccc(F)cc2)CC1
    -3.8	1.2	-0.2	0.1	-3.3	i	-4.5	-6.0
Cc1ccc(S(=O)(=O)CCC(=O)OCC(=O)NC(N)=O)cc1
    1.2	/	-6.0	1.0	3.4	i	-22.4	-6.0
CN1CCN(CCC2Oc3cc([N+](=O)[O-])ccc3NC2=O)CC1 (stereo unspecified)
    2.7	/	1.4	-2.4	0.9	i	9.6	-0.2
Cc1cccc2cc(C#N)c(SCC(=O)N3CCC(C)CC3)nc12
    16.9	-12.2	15.2	-3.7	2.7	i	/	-3.7
Cc1cc(C)n2nc(SCC(=O)NC(=O)c3ccccc3Cl)nc2n1
    /	-3.7	/	2.1	6.0	/	/	-11.1
O=C(Nc1ccc(Oc2ccccc2)cc1)c1csc([C@@H]2C[C@H](O)[C@@H](CO)O2)n1
    /	15.1	/	4.4	-26.4	/	?	/
Cn1ncc(Cl)c1C(=O)Nc1ccc2c(c1)CCC2
    -4.9	-15.3	-4.1	0.8	-0.5	i	-73.6	-4.2
CCOc1ccccc1N(CC(=O)N1CCCC1)S(C)(=O)=O
    3.6	-6.8	-3.3	-1.5	2.9	i	-1.5	-3.6
O=C1c2ccccc2C(=O)c2c1ccc(O)c2O
    /	-9.2	/	0.7	4.9	/	-181.2	/
C/C(=N\NC(=O)C(=O)Nc1c(C)n(C)n(-c2ccccc2)c1=O)c1ccc(Cl)s1
    -11.9	/	2.5	3.6	1.3	i	17.0	-2.4
CCc1ccccc1N(CC(=O)NCC1CCCO1)C(=O)CCC(=O)Nc1nccs1 (stereo unspecified)
    -0.8	2.3	-4.7	-0.1	1.4	i	-9.3	/
CCOC(=O)c1cc2c(s1)-c1c(C)cccc1OC2
    -5.2	-15.9	-6.1	10.0	2.1	i	-102.3	6.8
O=C1c2cccc3cccc(c23)C(=O)N1OS(=O)(=O)c1ccccc1
    -12.4	19.3	-8.9	0.5	1.3	i	/	18.4
COC(=O)c1cc(NC(=O)/C=C/c2ccc3c(c2)OCO3)cc(C(=O)OC)c1
    6.6	-7.2	16.6	6.2	-2.2	i	-4.3	55.1
COc1ccc(CN(CCC#N)CCC2(c3ccccc3)CC(C)N(C)CC2C)cc1OC (stereo unspecified)
    5.9	-13.8	17.4	0.6	3.1	i	11.1	-2.6
CN1CCN(c2nc(-c3ccccc3)ncc2S(C)(=O)=O)CC1
    -8.5	-11.8	4.1	-2.8	-1.0	i	17.2	-5.6
Cc1cc(Oc2ccc(-c3ccccc3)cc2)n2ncnc2n1
    2.5	-3.6	0.2	-1.9	1.6	i	-37.4	8.4
COc1ccc(CCN(C)C/C=C/c2ccccc2)cc1OC
    1.4	-13.1	9.3	-0.4	5.8	i	13.1	-17.1
Cc1cc(C)cc(NC(=O)C2C3C=CC(O3)C2C(=O)O)c1 (stereo unspecified)
    -1.9	-24.5	6.8	0.4	0.1	i	-4.9	-5.2
C/C(=N\NC(=O)COc1cccc(C)c1)c1ccc2ccccc2c1O
    -10.7	-14.1	-17.2	-5.1	2.5	i	16.2	-7.3

# 2 consecutive entries already listed, quoted:
# Screens in order: eIF4H FP inh	UUG fidelity	PABP FP inh	MT1-MMP act inh	MT1-MMP act inh RFP	Rce1 inhib	HIV Env fusion	CSC inhib
Cc1cc(C)cc(NC(=O)C2C3C=CC(O3)C2C(=O)O)c1 (stereo unspecified)
    -1.9	-24.5	6.8	0.4	0.1	i	-4.9	-5.2
C/C(=N\NC(=O)COc1cccc(C)c1)c1ccc2ccccc2c1O
    -10.7	-14.1	-17.2	-5.1	2.5	i	16.2	-7.3

# (continued)
# Screens in order: eIF4H FP inh	UUG fidelity	PABP FP inh	MT1-MMP act inh	MT1-MMP act inh RFP	Rce1 inhib	HIV Env fusion	CSC inhib
COc1ccc(S(=O)(=O)N2CCOCC2)cc1NC(=O)CCCOc1ccc(Cl)cc1C
    /	-26.0	/	0.8	2.9	/	35.7	/
CSc1ccc(S(=O)(=O)NCc2ccc(C)cc2)cc1
    3.7	-28.1	0.1	4.5	0.6	i	-12.5	-3.8
O=C(O)c1nn(-c2ccccc2C(F)(F)F)cc1O
    5.2	/	8.8	0.6	3.6	i	-0.8	6.9
CCOc1c2ccc(C(=O)NCC34CC5CC(CC(C5)C3)C4)cc2nn1CC
    -11.3	7.0	-1.4	5.5	-0.5	i	-23.1	0.2
COc1ccc(CNC(=O)[C@H](C)NC(=O)[C@@H]2Cc3ccccc3CN2)cc1
    -1.6	-12.8	-3.3	-4.5	0.3	i	1.8	-5.1
Cc1cc2nc(-c3ccc(NC(=O)C(C)C)cc3)oc2cc1C
    0.2	/	11.3	0.9	-2.9	i	/	6.4
CCOC(=O)C1CCCN(Cc2nc(N)nc(Nc3ccc(Cl)cc3)n2)C1 (stereo unspecified)
    -2.0	-5.8	-4.0	-2.4	-5.4	i	/	13.6
C=C(C)c1cccc(C(C)(C)NC(=O)N2CCN(c3ccccc3)CC2)c1
    -2.7	/	2.2	0.6	-3.0	i	4.0	-6.0
COc1cccc(C(=O)/C=C/Nc2ccc(S(=O)(=O)Nc3cccc(C(C)=O)c3)cc2)c1
    1.1	-14.7	-1.7	2.8	-27.1	i	/	4.6
C=CCn1c(SCC(N)=O)nc2scc(-c3ccc(C)o3)c2c1=O
    -3.3	-17.5	-7.7	4.1	-6.1	i	-41.8	-12.6
c1ccc(C2[C@H]3CN(CC4CCCCC4)[C@H](c4ccccc4)C34CC2(c2ccccc2)C4)cc1 (stereo partly specified)
    -13.2	-15.6	-13.1	-0.9	-8.3	i	-11.5	-1.4
C/C(=N/NC(=O)CSc1nc2ccccc2n1C)c1ccncc1
    7.2	/	27.2	-7.0	-3.8	i	-0.9	-11.3
Clc1ccc(-c2c[n+](Cc3ccc(Cl)cc3Cl)c3n2CCCCC3)cc1
    0.7	/	5.7	-4.9	-27.5	i	20.4	9.0
